Autofluor counter: flagged as autofluorescent in microsphere protease counterscreen | fluorescence intensity (test concentration not listed) | compound autofluorescence counterscreen, microsphere flow cytometry; active compounds read high | AID 624483 | hit rate 3.1% among 360,000;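 active = at least 3 SD above the mean of all compounds, about 16000 in these data; inconclusive = too few beads counted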;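 note: 100 nL of 1 mM stock went into each well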
Sa ugtP lethal: compounds lethal to S. aureus RN4220 ugtP deletion mutant. OD600 growth, 16 h; some inactives read as strong as hits. growth inhibition, % (test concentration not listed). hit rate 0.54% among 330,000;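 active = z-score under -3 and OD600 up to 0.15 on both plates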;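 note: plate controls were untreated wells for no effect and antibiotic for full effect; wells of about 80 µL received 100 nL stock; the first replicate is given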
Mtb hypoxia rep: reduces hypoxia-regulated biosensor signal in M. tuberculosis. M. tuberculosis hypoxia-regulated fluorescent reporter, fluorescence. fluorescence inhibition, % (no concentration beside the values). hit rate 0.1% among 300,000. AID 1159583;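 active = 35 to 45% if threefold the growth effect, above 45% if 1.5-fold the growth effect; inactive = the rest, general growth blockers included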;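 note: wells of about 50 µL received 100 nL stock; 0% = vehicle wells and 100% = reference inhibitor wells; whole bacteria with a GFP reporter of the hypoxia response; strong numbers were not always called active; many hits fall short of the cut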
PrP 5UTR inh: suppresses PrP 5' UTR mRNA reporter expression; cell-based PrP 5' UTR mRNA reporter, plate reader; inhibition, % (concentration not given with the values); hit rate 0.35% among 340,000;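 active = every replicate at 50% or more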;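 note: 0 = median of the neutral control wells; tested in H4 reporter cells; numbers are from one replicate; inactives centre near -14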
BJeLR lethal: BJeLR cell viability loss; AID 1554; BJeLR (HRASV12) viability, CellTiter-Glo ATP luminescence, 48 h; reference of the scale not given here; inhibition, % (no concentration beside the values); hit rate 0.17% among 300,000;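 active = replicate mean above 50%; inconclusive = above 50% but judged a plate artefact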;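 note: 50 nL library stock added to about 25 µL; numbers are from one replicate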
RN4220 kill: S. aureus RN4220 growth inhibition | OD600, 16 h | inhibition, % (test concentration not listed) | hit rate 0.33% among 330,000;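 active = z-score of -3 or lower and OD600 up to 0.18 on both plates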;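 note: plate controls were untreated cells for no effect and reference antibiotic for full effect; stock transfer was 100 nL into about 80 µL; one replicate is shown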
Mtb hypoxia rep growth: also measured in Mtb hypoxia rep; calls as there; growth inhibition, %; measured here: M. tuberculosis growth (absorbance);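 0% = vehicle and 100% = reference antibiotic; read after six days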
Starred values were filed as active, the others as inactive; ? = inconclusive; . = not tested or not shown; & = joins results of further samples.

entry	SMILES	Autofluor counter	Sa ugtP lethal	Mtb hypoxia rep	Mtb hypoxia rep growth
1	COc1ccc(CCNCc2ccc(OC)c(OC)c2OC)cc1	5645	0	-2	10
2	CCOc1ccc(NS(=O)(=O)c2c(C)nc3sc(CC)nn3c2=O)cc1	5793	10	6	6
3	COC(=O)c1cc2ccsc2n1CC(=O)N(C)C1CCCCC1	3756	17	5	-1
4	O=C(/C=C/c1cc[n+](CC(=O)c2ccc3cccc4c3c2CC4)cc1)c1ccc2cccc3c2c1CC3	6686	-7	11	5
5	CN(C)C(/C=C/Nc1ccc(C#N)cc1)=C(C#N)C#N	10567	0	-7	-6
6	c1ccc(-c2ccc(Oc3cc(N4CCOCC4)nc(-c4ccccc4)n3)cc2)cc1	10421	21	5	7
7	O=C(Cn1c(SCc2ccccc2)nc2ccccc21)N1CCOCC1	4212	5	8	3
8	Cc1sc(NC(=O)c2ccco2)c(C(c2cccnc2)N2CCN(CCO)CC2)c1C (stereo not drawn)	3091	0	14	10
9	Cc1cccc(C)c1NC(=O)C(C)N1CCCCC1 (stereo not drawn)	4276	9	8	1
10	CC(=O)Nc1ccc(N2C(=O)C3C4C=CC(CC4)C3C2=O)cc1 (stereo not drawn)	3823	5	7	4
11	CC(=O)Nc1ccc(SCC(=O)c2cc(C)n(Cc3cccs3)c2C)cc1	2429	-2	8	9
12	O=C(NCCCN=C1NS(=O)(=O)c2ccccc21)c1ccccc1Cl	3698	6	1	3

entry	PrP 5UTR inh	BJeLR lethal	RN4220 kill
1	-16	-2	2.8
2	-6	.	-1.6
3	-2	7	5.7
4	-13	7	5.0
5	-23	-12	-2.7
6	-26	4	-1.7
7	-33	-5	3.0
8	-3	1	1.8
9	-5	12	1.5
10	-34	-1	5.6
11	61*	-1	9.4
12	-24	-4	3.9

Next section, starting with the last 2 of the part before.
entry	SMILES	Autofluor counter	Sa ugtP lethal	Mtb hypoxia rep	Mtb hypoxia rep growth
11	CC(=O)Nc1ccc(SCC(=O)c2cc(C)n(Cc3cccs3)c2C)cc1	2429	-2	8	9
12	O=C(NCCCN=C1NS(=O)(=O)c2ccccc21)c1ccccc1Cl	3698	6	1	3
13	COc1ccc2[nH]c(=O)c(C(c3nnnn3C(C)(C)C)N(Cc3ccco3)CC3CCCO3)cc2c1 (stereo not drawn)	6440	-1	-4	-4
14	CCN(CC)CCNC(=O)C1(O)c2cc(Br)ccc2NC(=O)N1c1ccc(Cl)cc1 (stereo not drawn)	3810	4	16	11
15	Cc1csc(NC(=O)CSc2nnc(NC(=O)COc3ccc(Cl)cc3)s2)n1	8447	-20	5	7
16	CN(CC(=O)Nc1ccc(Cl)c(S(=O)(=O)N2CCOCC2)c1)C(=O)c1ccc(C#N)cc1	3936	0	14	3
17	O=C(CCCOc1ccccc1)Nc1ccccc1C(F)(F)F	2497	2	11	3
18	Cc1cc(C)cc(-n2nnn(C3C/C(=N/NC(N)=S)C4OCC3O4)c2=S)c1 (stereo not drawn)	4405	.	.	.
19	O=C(c1cc(S(=O)(=O)N2CCOCC2)ccc1Cl)N1CCN(c2ccccn2)CC1	4340	2	9	3
20	CN(C)/C=C1\SC(=S)N(c2ccc(Br)cc2)C1=O	4319	.	.	.
21	COc1ccc(OC)c(CC(=O)Nc2ccc3c(c2)CCC3)c1	2858	4	-1	5
22	O=C(Nc1nnc(Cc2ccccc2F)s1)c1ccccc1Cl	3665	.	.	.
23	CCOC(=O)C1C(=O)CC(C)(O)C(C(=O)OCC)C1c1cccs1 (stereo not drawn)	3257	-4	.	.
24	COC(=O)C(NNc1ccccc1)(NC(=O)c1ccccc1F)C(F)(F)F (stereo not drawn)	4287	8	21	12

entry	PrP 5UTR inh	BJeLR lethal	RN4220 kill
11	61*	-1	9.4
12	-24	-4	3.9
13	-13	-2	2.4
14	-21	-5	3.5
15	-14	-4	6.4
16	-9	.	7.6
17	-14	5	2.2
18	-17	1	.
19	-10	-2	-4.6
20	-74	3	.
21	-7	-2	-1.9
22	-26	-20	.
23	-1	0	2.0
24	-21	0	6.2

The list goes on, overlapping the part above by five compounds.
entry	SMILES	Autofluor counter	Sa ugtP lethal	Mtb hypoxia rep	Mtb hypoxia rep growth
20	CN(C)/C=C1\SC(=S)N(c2ccc(Br)cc2)C1=O	4319	.	.	.
21	COc1ccc(OC)c(CC(=O)Nc2ccc3c(c2)CCC3)c1	2858	4	-1	5
22	O=C(Nc1nnc(Cc2ccccc2F)s1)c1ccccc1Cl	3665	.	.	.
23	CCOC(=O)C1C(=O)CC(C)(O)C(C(=O)OCC)C1c1cccs1 (stereo not drawn)	3257	-4	.	.
24	COC(=O)C(NNc1ccccc1)(NC(=O)c1ccccc1F)C(F)(F)F (stereo not drawn)	4287	8	21	12
25	C[C@H](CO)N1C[C@H](C)[C@@H](CN(C)Cc2ccc3c(c2)OCO3)Oc2c(NS(C)(=O)=O)cccc2C1=O	3765	6	-5	-2
26	NCCCC[C@H](N[C@@H](CCc1ccccc1)C(=O)O)C(=O)N1CCC[C@H]1C(=O)O	4164&3494	14	0	7
27	CCCCNC(=S)NNC(=O)c1csc(C)c1CC	2491	4	16	16
28	S=C(Nc1ccc(Nc2ccccc2)cc1)Nc1ccccn1	4842	13	6	12
29	COc1cc(CNCCO)ccc1OC1CCCC1	11014	0	5	9
30	Cc1ccc(-n2nnnc2CCl)cc1	3874	3	.	.
31	CCOC(=O)c1c(C)[nH]c(C(=O)N/N=C\c2ccccc2O)c1C	10457	.	.	.
32	COc1ccc(NC(=O)CC2COc3ccccc3O2)c(OC)c1 (stereo not drawn)	2793	-4	10	11
33	Cc1ccccc1-c1cc(C(=O)NN=Cc2cccnc2)c2ccccc2n1	.	6	5	13
34	COc1ccccc1CCNC(=O)C1(C)CC1(Cl)Cl (stereo not drawn)	5118	-1	-3	2
35	O=C(Nc1ccnc(=O)[nH]1)c1sc2ccccc2c1Cl	3900	-9	-13	13
36	CN(C)c1ccc(C(O)Cc2nc3ccccc3n2C)cc1 (stereo not drawn)	3655	2	14	7

entry	PrP 5UTR inh	BJeLR lethal	RN4220 kill
20	-74	3	.
21	-7	-2	-1.9
22	-26	-20	.
23	-1	0	2.0
24	-21	0	6.2
25	-12	.	2.8
26	-14&-10	5	-2.0
27	-3	0	4.0
28	-12	9	-0.3
29	1	-7	-1.1
30	-19	11	11
31	9	37	.
32	-22	-12	-2.4
33	.	.	0.2
34	-10	-4	11
35	-48	-8	-1.1
36	-23	-1	-1.4

(list continues)
entry	SMILES	Autofluor counter	Sa ugtP lethal	Mtb hypoxia rep	Mtb hypoxia rep growth
37	O=C(NCc1ccco1)c1cccc(-c2nnc(-c3ccccc3)o2)c1	2897	-11	10	8
38	CCOC(=O)c1c(NC(=O)COC(=O)Cc2n[nH]c(=O)c3ccccc23)sc(C(=O)NC)c1C	3147	3	9	3
39	CCCCCCNc1cc(C)oc(=O)c1C(C)=O	2546	7	-8	7
40	CN=c1scc(-c2cccs2)n1/N=C/c1ccc(O)c(O)c1O	2066	.	.	.
41	O=C(NCCc1ccccc1)c1cc(=O)c2ccccc2o1	2560	6	12	5
42	CN(C)C=NC(=S)Nc1ccccc1	.	9	11	9
43	CCOC(=O)/C=C1/N(C)c2ccccc2C1(C)C	4823	10	10	14
44	Cn1c(CSc2ncccn2)nnc1SCC(=O)N1CCCCC1	10816	3	3	6
45	COc1ccccc1C(=O)Nc1ccccc1C(=O)Nc1ccccc1	?	7	8	-3
46	COc1cc2c(cc1OC)C1=NC(=O)CN1C(SCc1ccccc1C)=N2	10208	3	13	7
47	COc1ccc(NC(=O)CCC(=O)c2cccs2)cc1Cl	3608	5	-8	-9
48	CCN(CC(=O)NCc1ccc(F)cc1)Cc1nc2cc(Cl)ccc2c(=O)[nH]1	2418	-7	6	8

entry	PrP 5UTR inh	BJeLR lethal	RN4220 kill
37	-21	0	-0.9
38	-1	.	6.2
39	-16	-1	3.6
40	-35	-3	.
41	-14	-11	10
42	.	.	4.7
43	-14	8	0.8
44	-25	-19	2.3
45	.	-3	3.9
46	-14	9	5.2
47	-19	2	-1.0
48	-7	.	-6.5

Further records
entry	SMILES	Autofluor counter	Sa ugtP lethal	Mtb hypoxia rep	Mtb hypoxia rep growth
49	O=C(NCCCN1CCOCC1)c1ccc2c(c1)N(Cc1cccc(Cl)c1)C(=O)CS2	3743	48	5	10
50	O=C(NCCCCc1ccccc1)C1CC(c2ccccc2C(F)(F)F)=NO1 (stereo not drawn)	4327	5	14	10
51	COc1ccc(S(=O)(=O)CCC(=O)O)cc1	4761	0	.	.
52	CCCCC(=O)Nc1cnc(NC(=O)c2cccs2)cc1C	3547	3	12	7
53	COc1ccc(NC(=O)C2C3C=CC(C3)C2C(=O)NCc2ccco2)cc1 (stereo not drawn)	16864*	8	5	6
54	CN(Cc1nc2ccccc2c(=O)[nH]1)C(=O)c1cccc(S(=O)(=O)N2CCCCCC2)c1	3005	6	2	-5
55	O=C(NCCOc1ccccc1F)c1cc(F)c(F)cc1Cl	2410	3	10	12
56	COc1ccc(Cn2nnnc2C(c2cccs2)N2CCCCCC2)cc1 (stereo not drawn)	4589	2	4	6
57	Fc1cccc(F)c1/C=C/c1ccc2ccccc2n1	1937	15	1	-1
58	CN(C)c1ccc(N=c2sc3ccccc3n2C)cc1	13184	10	17	21
59	CC(=O)n1c(C=Nc2ccccc2)c(O)c2ccccc21	2317	-13	17	2
60	COC(=O)c1ccc(NC(=S)NNC(=O)CC(C)C)cc1	2216	-5	11	8

entry	PrP 5UTR inh	BJeLR lethal	RN4220 kill
49	-21	7	1.8
50	-23	-4	1.5
51	3	.	4.1
52	-77	1	4.2
53	-5	-3	3.3
54	-7	.	4.6
55	-103	-7	5.7
56	-21	-1	7.6
57	0	8	2.0
58	-100	-8	-2.2
59	-25	6	17
60	-15	-4	5.3

(list continues)
entry	SMILES	Autofluor counter	Sa ugtP lethal	Mtb hypoxia rep	Mtb hypoxia rep growth
61	COc1ccc(NC(=O)Nc2cccc3c2OC(CN(C)S(=O)(=O)c2cccs2)C(C)CN(C(C)CO)C3=O)cc1 (stereo not drawn)	.	2	2	9
62	CCCOC(=O)c1ccc(Oc2c(-c3ccc(OCC)cc3O)n[nH]c2C)cc1	11883	-14	-2	-5
63	O=C1C(=O)c2ccc(-c3ccccc3)cc2-c2ccccc21	16446*	60	.	.
64	O=C(CC1C(=O)NCCN1CC(c1ccccc1)c1ccccc1)NC1CC1 (stereo not drawn)	2728	7	15	-1
65	CN1CCN(C(=S)NC(=O)c2ccccc2Cl)CC1	?	2	13	-5
66	CCc1ccccc1NC(=O)CN1CCN(C(=O)C2CCN(C(=O)/C=C/c3ccccc3)CC2)CC1	2900	13	24	6
67	NS(=O)(=O)c1ccc(NC(=O)COC(=O)CN2C(=O)C3CC=CCC3C2=O)cc1 (stereo not drawn)	5849	6	8	5
68	Cc1ccc(N(CC(O)CN2CCOCC2)S(=O)(=O)c2ccc3ccccc3c2)cc1 (stereo not drawn)	4913	-4	.	.
69	Cc1ccccc1OCCC(=O)OCC(=O)N(C)c1c(N)n(Cc2ccccc2)c(=O)[nH]c1=O	6265	3	4	9
70	NS(=O)(=O)c1ccc(CNC(=O)NC2(c3ccccc3)CC2)cc1	5371	9	14	8
71	C[C@]12CCC3C(CC[C@H]4C[C@@H](O)CC[C@]34C)C1C[C@@H](O)[C@]2(C)O (stereo partly drawn)	4004	9	10	10
72	O=C(NCCC1CC1(Cl)Cl)Nc1ccccc1 (stereo not drawn)	3407	4	23	26
73	Cc1cc(=O)oc2cc(OC(C)C(=O)O)c(Cl)cc12 (stereo not drawn)	7947	4	-17	-31
74	O=C(COc1ccc(S(=O)(=O)NC2CCCCC2)cc1Cl)Nc1ccc2c(c1)OCO2	25024*	-20	7	-1

entry	PrP 5UTR inh	BJeLR lethal	RN4220 kill
61	.	.	2.9
62	-14	-18	-14
63	-36	110*	28
64	-9	-4	0.4
65	-15	0	2.6
66	-1	.	5.4
67	.	.	3.4
68	-11	4	3.0
69	-24	1	-2.5
70	1	10	3.3
71	-12	.	3.7
72	-30	1	2.5
73	-16	-3	6.0
74	-9	0	3.3
